# Bioassay records deposited in PubChem BioAssay by National Center for Advancing Translational Sciences (NCATS).
# Rango complex inh = qHTS Assay for Inhibitors of Rango (Ran-regulated importin-beta cargo) - Importin beta complex formation | Rango CFP/YFP FRET sensor + importin beta, 45 min | Potency, µM (highest dose often 92.2 µM), for inactives: top-dose inhibition of complex formation | 340,000 compounds, 0.031% hits; active = rising FRET ratio curve, often small or poorly fitted; inconclusive = mostly compound fluorescence or quenching in the first reads; inactive = flat curves in all reads;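 also: potency is read from the fitted curve at half-maximal effect; 0% = DMSO wells and 100% = buffer wells lacking importin beta; nearly all actives have a fitted effect of over 15% in size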
#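 FRET biosensor (snurportin 1 IBB flanked by EYFP and cerulean), 50 nM, with compound 5 min, then 0.125 microM importin beta in PBS, 1 mM DTT, 0.02% Tween-20, 0.1% BSA. CFP/YFP ratio read after 45 min at room temperature; pre-read flags interference.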
# Rango release inh = qHTS Assay for Inhibitors of RanGTP induced Rango (Ran-regulated importin-beta cargo) - Importin beta complex dissociation. Snurportin-1 (Homo sapiens) + GTP-binding nuclear protein Ran (Homo sapiens) + Importin …. Biochemical FRET Rango-importin beta, RanGTP-induced dissociation. Potency, µM (doses to about 46.1 µM), inactives show at the highest dose activity change, negative = inhibition. 340,000 compounds, 0.071% hits; active means falling FRET ratio curve, often poorly fitted, with flat reads before Ran was added; inconclusive means other falling curves, or compound fluorescence or quenching; inactive means flat or rising ratio curve;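 also: potency is read from the fitted curve at half-maximal effect; % of control where 0% means no effect; nearly all actives have a fitted effect of over 45% in size; -100% = wells without RanGTP and RCC1; the record marks most hits as doubtful in a second field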
#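 Quantitative HTS using a FRET biosensor: 0.1 uM Rango, 0.25 uM importin beta, 0.6 uM Ran, 2 mM GTP, 0.2 uM RCC1 final, PBS with DTT, Tween-20 and BSA. Post-read taken 45 min after Ran addition.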
# GLA inh pH 4.5 = qHTS Assay for Inhibitors of Human alpha-Galactosidase at pH 4.5 | activity change, negative = inhibition, % at 105 µM | 230,000 tested, under 10 active | purified enzyme, 4-MU-alpha-Gal fluorescence, pH 4.5 | AID 1467, 2008; inconclusive = small, poorly fitted or top-dose-only inhibition, or a rising curve; inactive = flat fitted curve, though single readings scatter; no compound was filed as active;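 also: 0% = full activity with enzyme and -100% = basal without enzyme; dose as in the result columns while the protocol names 77 µM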
# Target sequence (P06280 whole entry, looked up): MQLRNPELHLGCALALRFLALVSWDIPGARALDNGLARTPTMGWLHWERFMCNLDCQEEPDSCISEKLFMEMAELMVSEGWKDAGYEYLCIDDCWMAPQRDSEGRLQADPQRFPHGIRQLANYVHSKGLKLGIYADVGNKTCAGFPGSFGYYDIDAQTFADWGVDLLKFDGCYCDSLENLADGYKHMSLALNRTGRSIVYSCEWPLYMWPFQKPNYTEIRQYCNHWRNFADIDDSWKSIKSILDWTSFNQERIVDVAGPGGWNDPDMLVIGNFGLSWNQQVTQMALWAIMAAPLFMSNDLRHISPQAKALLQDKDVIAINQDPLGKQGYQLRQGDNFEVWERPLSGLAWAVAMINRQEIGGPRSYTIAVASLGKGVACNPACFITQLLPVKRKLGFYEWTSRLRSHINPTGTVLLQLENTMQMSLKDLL
# miR-21 reporter = qHTS Assay for Modulators of miRNAs and/orActivators of miR-21; HeLa miR-21 FLuc reporter, luciferase, 48 h; Potency, µM (titrated, usually from 38.3 µM), without a hit: top-dose reporter change, positive = more light; 340,000 tested, under 10 active; AID 2288, 2010; active = well fitted rising curve with a large enough effect; inconclusive = small, poorly fitted or top-dose-only effect; inactive = no such curve, though single readings can be large or run the other way;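 also: % of control where 0% means no effect; miR-21 action dims this reporter so a rising signal means less miR-21 action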
#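 Using DMEM plus 10% FBS, HeLa miR-21-FLuc cells are incubated with test compounds (final up to about 40uM) for 48 hours; firefly luciferase signal is then imaged following reagent-mediated lysis.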
# Active calls of the source: *; ? = inconclusive; / = no result given; & = joins results of further samples; [ ] = dose if it differs, or a comment.
SMILES,Rango complex inh,Rango release inh,GLA inh pH 4.5,miR-21 reporter
CCC1CCCCN1CCCNC(=O)c1cc2c(=O)[nH]c3ccccc3c2n1C (stereo not drawn),2.2%,3%,2[21.1 µM],-5%
O=C(Nc1ccc2c(c1)CCC2)c1cccs1,-4.8%,-8%,2,-32%
O=C(c1ccc2c(c1)[nH]c(=S)n1c3ccccc3nc21)N1CCN(c2cccc(Cl)c2)CC1,-1.4%,-11%,-3,3%
CC1(C)CC(=O)C2=C(C1)N(c1ccc(F)cc1)C(=O)CC2c1ccsc1 (stereo not drawn),-1.8%,-4%,3,-3%
CN(CCOC(=O)C1c2ccccc2Oc2ccccc21)C(C)(C)C,-2.2%,-1%,6,-4%
COc1ccc(NC(=O)CN2CCCC2)cc1,0.7%,-9%,/,-10%
O=C(Nc1ccc2c(c1)OCO2)c1cc(-c2ccc(O)cc2)on1,-1.9%,10%,/,-26%
CC(C)=CCCC1=CCC2C(=O)NNC(=O)C2C1 (stereo not drawn),0.5%,12%,/,-8%
COc1ccc2[nH]cc(C(=O)CN3CCCC(C)(C)C3)c2c1,0.8%,2%,/,-7%
CCCCNc1c(C(=O)OCC)c(C)nc2c1cnn2CC,-1.8%,-1%,-10&-3&-1,/
CC(NC(=O)CN1C(=O)NC(C)(c2cccc3ccccc23)C1=O)c1ccccc1 (stereo not drawn),3.6%,-3%,/,0%
CC1(C)C(=O)C2(CCCCC2)C(=O)OC1c1cccs1 (stereo not drawn),-1.6%,-4%,1,-2%
O=C(N/N=C/c1cccc(O)c1)NC1CCCCC1,-5.3%,-1%,2,-35%
COc1ccc2[nH]c3c(=O)n(Cc4ccc(C(=O)NCC5CCCO5)cc4)c(=S)[nH]c3c2c1 (stereo not drawn),-4.3%,6%,-3,-2%
O=C(Cn1cnc2ccccc2c1=O)NCCCN1CCCC1=O,1.0%,29%,/,/
Cc1cccc(N/N=C/c2ccccc2O)c1,-0.3%,-2%,8,-63%
CC12CC(c3ccccc3O1)N(C(=O)c1ccco1)C(=S)N2c1ccccc1 (stereo not drawn),1.2%,7%,-11,11%
O=C(O)CC(CC(=O)NCC(O)c1ccccc1)c1ccccc1 (stereo not drawn),0.3%,4%,/,-1%
O=C(C1CC(=O)N(C2CCCC2)C1)N1CCN(c2ccc(F)cc2)CC1 (stereo not drawn),-0.7%,16%,/,/
Cc1ccc(-c2cc(C(F)(F)F)n3ncc(C(=O)NCc4ccco4)c3n2)cc1,-2.7%,2%,-1,-7%
CC(C)CC1NC(=O)N(CC(=O)N2c3ccccc3NC(=O)C2(C)C)C1=O (stereo not drawn),1.5%,1%,7,0%
COc1ccc(NS(=O)(=O)c2ccc3oc(Nc4ccc5c(c4)OCCO5)nc3c2)cc1,-0.2%,10%,1,-23%
CC(C)(C)NC(=O)NC(=O)CSc1nnc(-c2ccccc2F)n1N,1.2%,0%,2,-5%
Cc1ccc2nc(Cn3cc(C(F)(F)F)cc(Cl)c3=O)cc(=O)n2c1,-3.1%,-5%,-17,-8%
Cc1cc(C(=O)COC(=O)c2ccccc2Br)c(C)n1CC1CCCO1 (stereo not drawn),-2.3%,-10%,0,7%

# Reprinted from the part before: 6 compounds; new compounds follow.
SMILES,Rango complex inh,Rango release inh,GLA inh pH 4.5,miR-21 reporter
Cc1ccc(-c2cc(C(F)(F)F)n3ncc(C(=O)NCc4ccco4)c3n2)cc1,-2.7%,2%,-1,-7%
CC(C)CC1NC(=O)N(CC(=O)N2c3ccccc3NC(=O)C2(C)C)C1=O (stereo not drawn),1.5%,1%,7,0%
COc1ccc(NS(=O)(=O)c2ccc3oc(Nc4ccc5c(c4)OCCO5)nc3c2)cc1,-0.2%,10%,1,-23%
CC(C)(C)NC(=O)NC(=O)CSc1nnc(-c2ccccc2F)n1N,1.2%,0%,2,-5%
Cc1ccc2nc(Cn3cc(C(F)(F)F)cc(Cl)c3=O)cc(=O)n2c1,-3.1%,-5%,-17,-8%
Cc1cc(C(=O)COC(=O)c2ccccc2Br)c(C)n1CC1CCCO1 (stereo not drawn),-2.3%,-10%,0,7%
CC1CCN(CC(=O)Nc2nccs2)CC1,0.8%,-5%,/,-1%
O=C(NC1CCCCCCC1)C1CCCN(S(=O)(=O)c2cnc[nH]2)C1 (stereo not drawn),-0.6%,4%,2,-10%
Fc1cccc(Cl)c1-c1nnc2ccc3ccccc3n12,0.4%,-8%,4,-11%
CC(C)C(=O)N1CCN(c2ccccc2NC(=O)c2ccco2)CC1,2.6%,3%,/,5%
COc1ccc(S(=O)(=O)N2CCN(C(=O)CCc3c[nH]c4ccccc34)CC2)cc1,1.6%,-4%,/,/
Cc1cc(C)nc(SCC(=O)N/N=C/c2cc(C)n(-c3ccccc3C)c2C)n1,-0.7%,2%,-13,-17%
Cc1[nH]c2ccccc2c1C(c1ccncc1)N1CCCCC1 (stereo not drawn),3.2%,17%,-3,5%
C=CC[C@@H](CC(=O)N[C@H](CO)Cc1ccccc1)C(=O)N[C@@H](COC(=O)[C@H](CC=C)CC(=O)OC(C)(C)C)Cc1ccccc1,-2.9%,31%,/,/
CN(CC(=O)NCC(c1ccco1)N1CCCCC1)S(=O)(=O)c1ccc(Cl)cc1 (stereo not drawn),1.2%,-9%,/,/
CCOc1ccc(CCNC(=O)C2CCN(c3nnc(-n4cccc4)s3)CC2)cc1OCC,1.4%,6%,-5,4%
CCCNC(=O)c1cnc(-c2ccccc2)nc1-c1ccccc1,-0.2%,-13%,/,-4%
COc1ccc(-c2cc(C(=O)N3CCCC3)c3ccccc3n2)cc1,0.1%,5%,/,-34%
N#CCCN1C(=O)C2(OCCO2)c2ccccc21,-3.2%,17%,/,0%
CCOC(=O)[C@@H]1[C@H]2COc3cc(OC)ccc3[C@@H]2N2C(=O)N(c3cccc(F)c3)C(=O)[C@@]12C,3.0%,3%,/,2%
COc1ccc(S(=O)(=O)N2CCOC2CNC(=O)C(=O)NCc2ccccn2)cc1 (stereo not drawn),-0.2%,-9%,/,/
O=C(c1cc(S(=O)(=O)N2CCOCC2)ccc1Cl)N1CCC(Cc2ccccc2)CC1,-0.1%,-12%,/,/
COc1ccc2oc(C(=O)NC(C)(C)C)c(C)c2c1,-1.8%,-4%,-5,-60%
Cn1nnnc1SCC(=O)NC(=O)Cc1ccccc1,1.7%,1%,-7,-1%
COC(=O)C(NC(=O)c1ccc(Cl)cc1)(Nc1nc(C)cs1)C(F)(F)F (stereo not drawn),-1.3%,17%,1,2%
O=C1CN(O)C=C2N=c3ccccc3=C2N1c1ccc([N+](=O)[O-])cc1,1.4%,-12%,-9,-2%
CCOC(=O)CSc1nnc(-c2ccoc2C)n1-c1ccc(C)cc1,-2.9%,-5%,2,-2%
Cc1ccc(NC(=O)c2cccnc2)cc1S(=O)(=O)N1CCOCC1,1.3%,-10%,/,/
O=C(CCc1ccccc1)Oc1ccccc1[N+](=O)[O-],-1.0%,0%,/,/
COc1ccc(C(=O)NCC(=O)N2CCCCC2)cc1OC,-2.9%,-6%,-12,1%
O=C(NCCN1C(=O)CCC1=O)c1ccncc1,-0.6%,-7%,-3,2%

# Structures listed so far that contain a nitro group on carbon:
SMILES,Rango complex inh,Rango release inh,GLA inh pH 4.5,miR-21 reporter
O=C1CN(O)C=C2N=c3ccccc3=C2N1c1ccc([N+](=O)[O-])cc1,1.4%,-12%,-9,-2%
O=C(CCc1ccccc1)Oc1ccccc1[N+](=O)[O-],-1.0%,0%,/,/

# (further entries)
SMILES,Rango complex inh,Rango release inh,GLA inh pH 4.5,miR-21 reporter
CCN1CCN(c2ncnc3c2sc(=S)n3-c2ccccc2)CC1,3.7%,-11%,-1,-6%
CN(c1ccccc1)S(=O)(=O)c1ccc(C(=O)NCc2ccccc2CN2CCCC2)cc1,-4.5%,1%,/,/
COc1cccc(-c2ccc(NC(=O)C3CCCN(Cc4cnc(C)s4)C3)cc2)c1 (stereo not drawn),-1.3%,-5%,/,10%
COc1ccc(-c2nn(-c3ccccc3)cc2C(=O)N(C)C)cc1,-3.3%,1%,/,-5%
COc1ccccc1C1=NOC(C(=O)N2CCN(C(=O)c3ccco3)CC2)C1 (stereo not drawn),-0.4%,2%,/,-2%
Cc1cc(C)c(NS(=O)(=O)c2ccc(Cl)c(C(=O)O)c2)c(C)c1,3.0%,7%,5,-1%
N#Cc1c(N)nc(SCC(=O)NC2CCCCC2)c(C#N)c1-c1ccc(Cl)cc1,1.2%,4%,1,-3%
CCc1ccc(OCC(=O)NCCOc2ccccc2)cc1,-1.5%,0%,4,-10%
Cn1c2ccccc2c2nnc(SCc3ccc4nonc4c3)nc21,0.2%,3%,-21,0%
Cc1ccc(NC=C(S(=O)(=O)c2ccccc2)S(=O)(=O)c2ccccc2)c(C)c1,-0.3%,-3%,-4,-1%
COc1ccc(NS(=O)(=O)c2c(C)[nH]c(=O)[nH]c2=O)c(OC)c1,2.3%,4%,9,-2%
COc1ccc2nc(Cl)c(C3CC(c4ccco4)=NN3C(=O)CCCC(=O)O)cc2c1 (stereo not drawn),-1.6%,-5%,-6,-9%
CC(=O)Nc1ccc(S(=O)(=O)Nc2nc3ccccc3nc2Nc2ccc(S(N)(=O)=O)cc2)cc1,0.0%,-22%,-5,-8%
O=c1[nH]c(C(F)(F)F)nc2ccc3ccccc3c12,-3.6%,-2%,/,9%
Cc1cc(C)c(S(=O)(=O)N/N=C/c2ccc([N+](=O)[O-])o2)c(C)c1,?,0%,/,3%
Cc1ccc(S(=O)(=O)n2c(C)nc3ccccc32)cc1,0.7%,-7%,/,-6%
O=C(c1cc(Br)ccc1Cl)N1CCN(c2ncccn2)CC1,7.8%,-3%,/,-5%
CCCCn1nc(C(=O)NCC(c2cccs2)N2CCOCC2)c2ccccc2c1=O (stereo not drawn),0.7%,-3%,/,/
COC(=O)Cc1cc(=O)oc2cc(OC)ccc12,4.1%,-25%,4,-18%
COc1ccccc1C(=O)C1CCCN(C(=O)c2ccc(C(C)=O)s2)C1 (stereo not drawn),0.0%,-4%,/,-9%
O=C(O)COc1ccc(-c2nc(-c3ccccc3)c(-c3ccccc3)[nH]2)cc1,5.4%,-14%,/,6%
CN(C)CCCNC(=O)CC(c1ccc(F)cc1)c1ccco1 (stereo not drawn),4.3%,-3%,-3,-1%
COc1ccc(Cl)cc1NC(=O)NCCN1CCNC1=O,-1.8%,-2%,4,-2%
CC(C)NCC(O)c1cc(O)cc(O)c1 (stereo not drawn),?,?,-4&-4&-4,-10%
CC(C)C(=O)Nc1cc2c3c(c1)CCC(=O)N3CCC2,0.4%,-11%,/,4%

# Other compounds follow:
SMILES,Rango complex inh,Rango release inh,GLA inh pH 4.5,miR-21 reporter
CC1(C)NC(=S)NC1=S,1.7%,3%,/,/
O=C(NCc1ccccc1)C(c1ccc(F)cc1)N(C(=O)c1csnn1)C1CCCC1 (stereo not drawn),-2.7%,-6%,/,-3%
COc1ccc(S(=O)(=O)N2CCC(O)(c3cccnc3)CC2)cc1OC,1.8%,4%,-13,0%
CC(=O)NCC(=O)N1CCCC(C(=O)c2ccc(Oc3ccccc3)cc2)C1 (stereo not drawn),-0.5%,-14%,1,-1%
COc1cc(NC(=S)N2CCCC2)cc(OC)c1,-0.6%,11%,/,-6%
Cn1c(=O)c2c(nc(Oc3ccccc3Cl)n2C)n(C)c1=O,2.3%,5%,/,1%
O=C(CCC(=O)N(CC(=O)NC1CCCCC1)c1ccc(F)cc1)Nc1ccccn1,1.3%,2%,/,-3%
CN1CCN(NC(=O)c2cc(-c3ccccn3)nc3ccccc23)CC1,4.0%,-1%,-5,2%
CC(=O)C1=C(O)C(=O)OC1c1ccc(Cl)cc1 (stereo not drawn),-0.1%,13%,-16,0%
CCOc1ccc(S(=O)(=O)Nc2cccc(C(=O)N3CCN(c4cccc(OC)c4)CC3)c2)cc1,0.8%,2%,/,/
Cc1cc(=O)[nH]c(SCC(=O)N2CCCC(C)C2)n1 (stereo not drawn),0.1%,-15%,/,1%
S=c1sc2c(Cl)ncnc2n1-c1ccccc1,2.0%,-5%,0,?
CSc1cc(-c2ccc(Cl)cc2)n(Cc2ccccc2)c(=O)c1C#N,0.5%,-11%,4,0%

# An excerpt; rates above refer to the full screens.
